# VACV mCherry inh: vaccinia inhibition (mCherry reporter); Vaccinia virus mCherry reporter infection, fluorescence; about a quarter of the inactives have no number; Potency, µM (top dose mostly 36.5 µM), for the others: at the highest dose activity change, negative = inhibition, actives largely listed as inhibitors; hit rate 0.63% among 310,000; AID 720579; active = well fitted inhibition curve with a large enough effect; inconclusive = small, poorly fitted or top-dose-only effect; inactive = no such curve, though single readings can be large or run the other way; tested in A549 cells; note: nearly all actives have a fitted effect of over 35% in size; inactives centre near -10
# VACV Venus inh: inhibitors of vaccinia virus (Venus reporter) | Vaccinia virus Venus reporter expression, fluorescence | hit rate 0.46% among 330,000 | AID 720580 | Potency, µM (highest dose often 36.5 µM), inactives show at the highest dose activity change, negative = inhibition, actives largely listed as inhibitors; active means well fitted inhibition curve with a large enough effect; inconclusive means small, poorly fitted or top-dose-only effect; inactive means no such curve, though single readings can be large or run the other way; tested in A549 cells; note: nearly all actives have a fitted effect of over 30% in size; inactives centre near -10
# Numbers without * were called inactive; i = inactive; ? = inconclusive; / = no result given; & = joins results of further samples; [ ] = dose if it differs, or a comment. % is set by controls: 0 for no effect and ±100 for the full control effect; potency is the fitted concentration of half-maximal effect.
SMILES,VACV mCherry inh,VACV Venus inh
COc1ccc(NS(=O)(=O)c2ccc(Oc3ncccn3)cc2)cc1,/,-23%
CCCCCCC(=O)c1c(O)n(-c2ccccc2OC)c(=O)[nH]c1=O,i,-10%
O=C(COc1ccc(Cl)cc1)NCCc1csc(-c2ccc(C(F)(F)F)cc2)n1,-14%,-24%
CCOC(=O)N1CCC(NC(=O)c2ccc3c(c2)N(Cc2ccc(F)cc2)C(=O)c2ccccc2S3(=O)=O)CC1,-12%,-10%
CC(Sc1nc2ncc(Cl)cc2[nH]1)C(=O)c1c(N)n(C)c(=O)n(C)c1=O (stereo not given),i,-13%
CC(=O)N1CCCc2cc(S(=O)(=O)N3CCc4ccccc4C3)ccc21,i,-5%
CCc1cc(Cn2nc(C(=O)O)cc2-c2ccccc2)on1,i,-5%
Cc1ccc(-c2nc(CS(=O)(=O)CC(=O)N3CC(C)CC(C)C3)c(C)o2)cc1 (stereo not given),-16%,-11%
Cc1ccc(-n2nnc(-c3nc(-c4cccs4)no3)c2N)c(C)c1,-8%[7.34 µM],-4%[7.34 µM]
CS(=O)(=O)N1CCN(c2ccccc2F)CC1,-6%,3%
COc1cccc(CN(C)C(=O)c2ccccc2Sc2ccccc2C#N)c1,-4%,-21%
Cc1ccc(C(=O)COC(=O)c2ccc(-c3cnc4ccccc4n3)cc2)cc1C,-7%,-2%
N#C/C(=C\c1ccccn1)c1nc2ccccc2s1,?,61%[activator]
N#CC(C#N)=Cc1ccc(OC(=O)c2ccccn2)cc1,-11%,-8%
Cc1nn(-c2ccc(F)cc2)c(-n2cccc2)c1C(=O)N1CCN(C(=O)c2ccco2)CC1,-14%,-18%
COCc1cc(C)nc(SCc2ccc([N+](=O)[O-])cc2)c1C#N,-16%,-11%
COc1ccc(CN2CCN(C(=O)Cn3nc(C(=O)O)c4ccccc4c3=O)CC2)cc1F,-11%,-4%
Cc1ccc(CNCc2ccc3c(c2)OCO3)cc1,i,-13%
CCc1nc2nc(C)c(NS(=O)(=O)c3ccc(F)c(C)c3)c(=O)n2[nH]1,0%,2%
Cc1ccc(-c2cc(C(F)(F)F)n3nc(-c4ccc(Cl)cc4)cc3n2)cc1,-4%,14%
CCOc1ccccc1NC1=C(Cl)C(=O)N(c2ccc(OC)cc2)C1=O,-18%,-18%
COc1ccc(C2Nc3ccc(NC(=O)COC(C)=O)cc3C(=O)N2Cc2ccccc2)cc1COc1ccc(NC(C)=O)cc1 (stereo not given),-3%,-13%
COCC(=O)N(Cc1cc2ccc(C)cc2[nH]c1=O)c1ccc(C)cc1C,-11%,-7%
O=C(O)c1sc2cc(C(F)(F)F)cnc2c1-c1cccs1,12%,-10%
CN(CC(=O)Nc1ccc(F)cc1)C(=O)COC(=O)c1cc([N+](=O)[O-])ccc1N1CCOCC1,0%,-13%
Cc1ccc(-c2cnc(NCc3ccc(C(C)C)cc3)n2C)cc1,-14%[7.34 µM],-3%[7.34 µM]
COc1cc(C)c(NC(=O)COc2ccc3c(c2)OCO3)cc1C,-24%,-5%
O=C(Nc1ccccc1C(=O)O)c1cc(S(=O)(=O)N2CCCCCC2)ccc1Cl,-5%,-3%
CC1(C(=O)OCC(=O)Nc2ccccc2Cl)CC1(Cl)Cl (stereo not given),i,-12%
Nc1ccccc1Nc1ccc([N+](=O)[O-])cc1[N+](=O)[O-],-18%,-13%
CCCS(=O)(=O)N1CCN=C1SCc1ccc(C)cc1,i,-19%
Cc1ccccc1NC(=O)NC1(C(=O)NCc2ccco2)CCCCC1,-13%,5%
Cc1cc(C)c2c(=O)c3c(oc2c1)C(=O)N(CCO)C3c1cccc(O)c1 (stereo not given),i,-19%
CSc1ccc(NC(=O)Nc2cccn(Cc3ccccc3)c2=O)cc1,-22%,?
CCc1cc(C(=O)OC)c(NC(=O)CC2Sc3ccc(C(F)(F)F)cc3NC2=O)s1 (stereo not given),-9%,-4%
Cc1cc(C(=O)Nc2c(C)n(C)n(-c3ccccc3)c2=O)on1,-15%,-11%
N#Cc1ccccc1CSc1nc2ccc(NC(=O)c3ccccc3C(=O)O)cc2s1,-20%,-18%
COCCOC(=O)c1[nH]c2c(c1C)C(=O)CC(c1cc(OC)ccc1OC)C2 (stereo not given),-19%,-25%
CN1CCN(C(=O)c2ccc(S(=O)(=O)c3ccc(Br)cc3)cc2)CC1,-21%,-11%
CCc1nc(CN(C)C(=O)C2CCC(=O)N(CCc3cccc(F)c3)C2)no1 (stereo not given),-10%,-7%
CC(OC(=O)c1cccs1)C(=O)NCc1ccco1 (stereo not given),-9%,-17%
Cc1ccc(S(=O)(=O)NCCc2nnc3ccc(SCc4ccccc4F)nn23)cc1,-14%,-13%
O=C(NC(=S)NNS(=O)(=O)c1ccccc1)c1ccccc1[N+](=O)[O-],i,-2%
Nc1ccc(C(=O)C(=O)c2ccccc2)cc1,i,-18%
CCc1ccc2oc(C(=O)Nc3nc(-c4ccc(F)cc4)ns3)c(C)c2c1,0%,-2%
Cc1cccc(C)c1OCC(O)CNS(=O)(=O)c1ccccc1C(=O)N1CCOCC1 (stereo not given),/,-9%
O=C1CCC(=O)N1c1nc2nc(-c3ccccc3)cc(=O)n2[nH]1,/,-7%
Cc1cc(NC(=O)CSc2ccc(-c3ccc(F)cc3)nn2)no1,-1%,-7%
CC1=NN(c2ccccc2)C(=O)/C1=C\c1cc(C)n(C)c1C,i,-14%
O=C(O)C1CCC(C(=O)O)O1 (stereo not given),-10%,1%
Cc1ccc(N2CCN(c3ccc(C)cc3)C2c2ccccn2)cc1,-4%,-9%
CCN(Cc1ccc2c(c1)OCO2)C(=O)CSc1nc(C)nc2sc(C)c(C)c12,1%,1%
CCN(CC)C(=O)CSC(Nc1ccc(F)cc1)=C(C#N)C#N,i,40%[activator]
COC(=O)CN1C2(C#N)CCCCC2CC2CCCCC21C#N (stereo not given),/,16%
CCCCN(CC)C(=O)C1CCCN(c2ncnc3onc(C)c23)C1 (stereo not given),-19%,-16%
CC1CCCN(C(=O)c2cn(-c3ccccc3)nc2-c2cccnc2)C1 (stereo not given),-18%,-13%
COc1ccc(NC(=O)c2ccccc2OCC(=O)Nc2ccc(Br)cc2)cc1,-18%,-22%
CCN1CCN(C(c2cccc(Cl)c2)c2c(O)cc(C)n(CCOC)c2=O)CC1 (stereo not given),-9%,-6%
COc1ccc(CN2CCNC(=O)C2CC(=O)NC2CCCCC2)c(OC)c1 (stereo not given),-14%,-17%
Fc1ccc(-c2nc3ccc(Br)cn3c2Cc2ccccc2)cc1,-7%,-21%

# Profiles from above. Screens in order: VACV mCherry inh | VACV Venus inh
# Cc1ccc(N2CCN(c3ccc(C)cc3)C2c2ccccn2)cc1 in the list: -4% | -9%
# Fc1ccc(-c2nc3ccc(Br)cn3c2Cc2ccccc2)cc1 in the list: -7% | -21%
# COc1ccc(NC(=O)c2ccccc2OCC(=O)Nc2ccc(Br)cc2)cc1 in the list: -18% | -22%
# O=C(O)C1CCC(C(=O)O)O1 (stereo not given) in the list: -10% | 1%
# COc1ccc(CN2CCNC(=O)C2CC(=O)NC2CCCCC2)c(OC)c1 (stereo not given) in the list: -14% | -17%

# A stretch taken from the entries so far, for reference:
SMILES,VACV mCherry inh,VACV Venus inh
CC1=NN(c2ccccc2)C(=O)/C1=C\c1cc(C)n(C)c1C,i,-14%
O=C(O)C1CCC(C(=O)O)O1 (stereo not given),-10%,1%
Cc1ccc(N2CCN(c3ccc(C)cc3)C2c2ccccn2)cc1,-4%,-9%
CCN(Cc1ccc2c(c1)OCO2)C(=O)CSc1nc(C)nc2sc(C)c(C)c12,1%,1%

# The listing continues:
SMILES,VACV mCherry inh,VACV Venus inh
O=C(Cc1ccc(OCCCc2ccccc2)cc1)NO,-4%,-4%
Cc1cc(C)n2nc(CC(=O)NNC(=O)COc3ccccc3)nc2n1,i,-4%
Cc1cc(NC(=O)c2cc([N+](=O)[O-])ccc2Cl)no1,-3%,-19%
CC(C)NC(=O)Nc1ccc2c(c1)C(=O)N([C@H](C)CO)C[C@H](C)[C@@H](CN(C)C(=O)NC1CCCCC1)O2,i,-12%
COc1ccc2sc(N3C(=O)C4CC=C(C)CC4C3=O)nc2c1 (stereo not given),-20%,-17%
CCC(C)(C)NC(=O)C(c1ccc(OC)cc1)N(C(=O)CCC(=O)Nc1cc(C)on1)c1ccccc1F (stereo not given),-15%,-2%
COc1ccc(Br)cc1CNC(=O)c1cc2n(n1)CCCN(Cc1ccc(C)cc1)C2=O,-10%,-8%
CCOC(=O)c1c(/N=C/N(C)C)sc(C)c1C,-7%,-11%
COc1cc2c(C(=O)Nc3cc(OC)c(OC)c(OC)c3)cn(C)c(=O)c2cc1OC,-4%,-6%
COc1cccc(C(=O)NCCSc2c(C)[nH]c3ccccc23)c1OC,?,-14%
Cc1cc(O)c(C(c2ccccc2)N2CCC(C)CC2)c(=O)n1Cc1ccco1 (stereo not given),-2%,-6%
Cc1cc(C)n(-c2nnc(N3CCN(c4ccc(F)cc4)CC3)nn2)n1,?,-7%
Cn1c(=O)c(C(=O)CSc2nnc(Nc3ccccc3)s2)c(N)n(Cc2ccccc2)c1=O,i,-6%
O=C(c1cccc(Cl)c1)N1CCN(CCc2ccncc2)CC1,-18%,-9%
N#Cc1cn(Cc2ccccc2)c(=O)[nH]c1=O,-6%,-14%
CCOC(=O)N1CCN(C(=O)CSc2ccc(-c3ccccc3)nn2)CC1,-12%,-12%
C=CCOc1ccc(Br)cc1/C=N/O,/,-12%
COc1ccccc1CCN=C(N)NS(=O)(=O)c1ccc(C)c(C)c1,-19%,-15%
COc1ccc(C(CC(=O)O)NC(C)=O)cc1OC (stereo not given),/,-19%
COc1ccc([N+](=O)[O-])c(OC)c1C(=O)NC(=O)Nc1c(F)cc(F)cc1F,-2%,-11%
CC1=CC(C)(C)N(S(=O)(=O)c2ccc(C)cc2)c2ccccc21,-30%&-14%,?
O=C(COC(=O)c1cc(=O)[nH]c2ccccc12)c1ccccc1,-3%,-8%
c1cc(C2OCCN2CC2COC3(CCCC3)O2)ccn1 (stereo not given),/,-5%
COC(=O)CC1=C(C(=O)OC)C(c2ccncc2)C(C#N)=C(N)O1 (stereo not given),-4%[1.46 µM],-18%
O=C(COc1ncnc2ccccc12)Nc1cc(S(=O)(=O)N2CCOCC2)ccc1Cl,-1%,-3%
CCc1nc2ccc(C(=O)N(CC)CCN(C)C)cn2c1N(C)C(=O)C1CCCCC1,12%,-7%
Cc1nnc(NC(=O)CSc2cn(Cc3ccccc3)c3ccccc23)s1,0%,-19%
CCCCC(=O)N(C)c1c(C)nc2ccc(C(=O)N3CCN(C(=O)c4ccco4)CC3)cn12,i,-8%
COc1ccc(NC(=O)CSc2nc3sc(C)cc3c(=O)n2C)c(OC)c1,-20%,-8%
CCN(C(=O)COC(=O)c1ccccc1SCC(=O)NC1CCCCCCC1)C1CCS(=O)(=O)C1 (stereo not given),0%,-12%
COC(=O)Cc1[nH]nc2c1C1(C(=O)N(Cc3ccc(Cl)cc3)c3ccccc31)C(C#N)=C(N)O2 (stereo not given),-23%,-18%
CC(=O)c1cccc(S(=O)(=O)NC2CCCCCC2)c1,i,-14%
CCn1c(SCC(=O)NC2CCCC2)nnc1-c1c[nH]c2ccccc12,14%,2%
CCCCn1c(N)c(N(CC(C)C)C(=O)CSc2nnc(C)n2-c2ccc(OC)cc2)c(=O)[nH]c1=O,-8%,-7%
CCOc1ccc(N2C(=O)CC(NCCc3ccncc3)C2=O)cc1 (stereo not given),i,-2%
CCC1(C)Cc2c(sc3[nH]c(=S)n(Cc4ccccc4)c(=O)c23)CO1 (stereo not given),/,?
COc1ccc(CCNC(=O)Cn2c(=O)nc(-c3ccccc3)c3cc(Cl)ccc32)cc1OC,i,-18%
Cc1cc(/C(N)=N/OC(=O)Nc2ccc(Cl)cc2)no1,i[7.34 µM],-4%[7.34 µM]
Cc1cc(C)c(C#N)c(SCc2nnc(-c3ccccc3)o2)n1,-11%,-23%
CC(C)(Oc1ccc(Cl)cc1)C(=O)N1CCN(c2ccccn2)CC1,/,-28%
Nc1ccc(N2C(=O)c3ccccc3C2=O)c(Cl)c1,i,-21%
Cc1ccc(S(=O)(=O)N2CCOCC2)cc1NC(=O)COC(=O)CCn1c(C)csc1=O,-7%,-2%
CCOC(=O)c1ccc2ncc(C(=O)OCC)c(NCCc3ccc(OC)c(OC)c3)c2c1,-8%,-6%
CCc1ccc(/C=C2\SC(=S)N(CCC(=O)NCCCN3CCOCC3)C2=O)cc1,-29%,-12%
COc1ccccc1-c1c(C)nn2c(N3CCC(C(N)=O)CC3)cc(C)nc12,i,-20%
CSc1ccccc1C(=O)NCCOc1cccc(C)c1,-2%,-4%
CCc1ccc(CNC(=O)c2ccc(CSc3nc4ccncc4n3Cc3ccc(OC)cc3)cc2)cc1,?,-25%
O=C(NCc1ccccc1Cl)c1ccc2nc[nH]c2c1,-27%,-8%
Cc1ccc2[nH]c(CSc3nnc(NC(=O)COc4ccccc4Cl)s3)cc(=O)c2c1,-7%,-8%
CCCC(=O)OC1=C(C(C)=O)N(Cc2ccccc2)S(=O)(=O)c2ccccc21,-5%,-7%
O=C(O)C(=O)Nc1ncn[nH]1,-18%,-11%
COc1ccc(C)cc1Nc1ccc(C(=O)O)cc1[N+](=O)[O-],-4%,2%
O=C(NC(=S)N1CCc2ccccc21)c1ccccc1Br,i,-16%
Cc1ccc(S(=O)(=O)n2nc(OC(=O)c3c(-c4ccccc4Cl)noc3C)cc2N)cc1,i,-19%
COc1ccc(CCNC(=O)CSCc2ccc(Cl)cc2)cc1OC,-2%,-14%
Cc1ccc(N(CC(=O)Nc2ccccc2C(=O)N2CCOCC2)S(C)(=O)=O)cc1,-1%,0%
